NOMO-1 viab: STK33 inhibitor candidate reducing NOMO-1 cell viability; NOMO-1 AML viability, CellTiter-Glo luminescence, 72 h; inhibition, % (no concentration beside the values); actives 7.5% (n = 37,000); AID 2330;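 active means most replicates above 80%; inconclusive means exactly half above 80%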;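 further: wells of about 30 µL received 25 nL stock; 0% = median of vehicle wells and 100% = reference inhibitor level; the first replicate is given; inactives centre near 10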
An asterisk follows results filed as active. Not all compounds are listed; rates above refer to the full screens.

Preview (four entries):
`CC(C)NC(=O)N(C)C[C@H]1Oc2c(NS(=O)(=O)c3ccc(Cl)cc3)cccc2C(=O)N([C@H](C)CO)C[C@H]1C` gave NOMO-1 viab 15.6.
`C[C@H]1CN([C@@H](C)CO)C(=O)Cc2cc(NS(=O)(=O)c3ccc(Cl)cc3)ccc2O[C@H]1CN(C)Cc1ccncc1` gave NOMO-1 viab 2.9.
COc1ccc(NC(=O)N(C)C[C@@H]2Oc3ccc(NS(=O)(=O)c4ccc(Cl)cc4)cc3CC(=O)N([C@H](C)CO)C[C@H]2C)cc1 was read as NOMO-1 viab -17.2.
C=CCn1c(=O)c(C(=O)NCCCO)c(O)c2ccccc21 was read as NOMO-1 viab 16.5.

All compounds of this part, repeating the preview:
`CC(C)NC(=O)N(C)C[C@H]1Oc2c(NS(=O)(=O)c3ccc(Cl)cc3)cccc2C(=O)N([C@H](C)CO)C[C@H]1C` gave NOMO-1 viab 15.6.
`C[C@H]1CN([C@@H](C)CO)C(=O)Cc2cc(NS(=O)(=O)c3ccc(Cl)cc3)ccc2O[C@H]1CN(C)Cc1ccncc1` gave NOMO-1 viab 2.9.
COc1ccc(NC(=O)N(C)C[C@@H]2Oc3ccc(NS(=O)(=O)c4ccc(Cl)cc4)cc3CC(=O)N([C@H](C)CO)C[C@H]2C)cc1 was read as NOMO-1 viab -17.2.
C=CCn1c(=O)c(C(=O)NCCCO)c(O)c2ccccc21 was read as NOMO-1 viab 16.5.
C[C@@H]1CN([C@@H](C)CO)C(=O)c2cccc(NS(=O)(=O)c3ccccc3)c2O[C@@H]1CN(C)S(=O)(=O)c1cn(C)cn1 was read as NOMO-1 viab -13.3.
Cc1cc(C(=O)Nc2cccc3c2O[C@@H](CN(C)C(=O)Nc2c(C)noc2C)[C@@H](C)CN([C@H](C)CO)C3=O)n(C)n1 was read as NOMO-1 viab 23.2.
For C[C@@H]1CN([C@H](C)CO)C(=O)Cc2cc(NC(=O)CCN3CCOCC3)ccc2O[C@H]1CN(C)C(=O)NC1CCCCC1 the results were NOMO-1 viab 0.3.
Screening C[C@@H]1CN([C@H](C)CO)C(=O)c2cccc(NC(=O)NC3CCCCC3)c2O[C@@H]1CN(C)S(C)(=O)=O returned NOMO-1 viab -10.4.
Screening COc1ccccc1N(CC(=O)N(C)C)S(=O)(=O)c1ccc(C)cc1 returned NOMO-1 viab 18.9.
For Cc1ccc(C)c(NC(=O)CC2C(=O)N(c3ccccc3)C(=S)N2Cc2ccco2)c1 (configuration not stated) the results were NOMO-1 viab 50.5.
`C[C@@H]1CN([C@@H](C)CO)C(=O)c2cc(NS(=O)(=O)c3cn(C)cn3)ccc2O[C@@H]1CN(C)Cc1ccc(-c2ccccc2)cc1` gave NOMO-1 viab 47.0.
`O=S(=O)(c1cccc(-c2nnc(-c3ccccc3)o2)c1)N1CCCC1` gave NOMO-1 viab 58.9.
For COc1ccc(S(=O)(=O)Nc2cccc3c2O[C@H](CN(C)Cc2ccc(Oc4ccccc4)cc2)[C@@H](C)CN([C@H](C)CO)C3=O)cc1 the results were NOMO-1 viab 52.9.
`C=C1CCC(C2CC(=O)OC2=O)C(=O)CCC2C1CC2(C)C` (configuration not stated) gave NOMO-1 viab -9.9.
`Cc1noc(C)c1NC(=O)Nc1ccc2c(c1)C(=O)N([C@H](C)CO)C[C@@H](C)[C@@H](CN(C)S(=O)(=O)c1cn(C)cn1)O2` gave NOMO-1 viab 27.0.
`O=C(/C=C/c1ccc(Cl)cc1)Nc1cccc(Cl)c1` gave NOMO-1 viab 120.1*.
Screening C[C@@H]1CN([C@@H](C)CO)C(=O)c2cccc(N(C)C)c2O[C@@H]1CN(C)Cc1ccc(C(=O)O)cc1 returned NOMO-1 viab 7.8.
Screening C[C@@H]1CN([C@H](C)CO)C(=O)c2cccc(NS(=O)(=O)c3ccc(F)cc3)c2O[C@H]1CN(C)C(=O)Nc1ccc(C(F)(F)F)cc1 returned NOMO-1 viab 8.5.
Cc1noc(C)c1S(=O)(=O)Nc1ccc2c(c1)CC(=O)N([C@@H](C)CO)C[C@H](C)[C@H](CN(C)C(=O)Nc1ccc(C(F)(F)F)cc1)O2 was read as NOMO-1 viab -1.4.
`C[C@@H]1CN([C@H](C)CO)C(=O)Cc2cc(NC(=O)Nc3ccc4c(c3)OCO4)ccc2O[C@@H]1CN(C)Cc1ccc(Cl)c(Cl)c1` gave NOMO-1 viab 108.2*.
`C[C@H](CO)N1C[C@H](C)[C@@H](CN(C)S(=O)(=O)c2cccs2)Oc2c(NC(=O)C3CCCCC3)cccc2C1=O` gave NOMO-1 viab 5.2.
`C[C@@H]1CN([C@@H](C)CO)C(=O)c2cc(NC(=O)Cc3cn(C)c4ccccc34)ccc2O[C@H]1CN(C)Cc1ccc(Oc2ccccc2)cc1` gave NOMO-1 viab 55.5.
Screening Cc1sc2ncn(CC(=O)NCc3ccco3)c(=O)c2c1C returned NOMO-1 viab 20.8.
`C[C@H]1CN([C@@H](C)CO)C(=O)Cc2cc(NC(=O)NC3CCCCC3)ccc2O[C@@H]1CN(C)S(=O)(=O)c1ccc(F)cc1` gave NOMO-1 viab 15.6.
`COc1ccc(CN(C)C[C@@H]2Oc3c(NS(=O)(=O)c4ccc(Cl)cc4)cccc3C(=O)N([C@@H](C)CO)C[C@H]2C)cc1` gave NOMO-1 viab 1.5.
`CC(C)NC(=O)N(C)C[C@H]1Oc2c(NS(=O)(=O)c3ccc(F)cc3)cccc2C(=O)N([C@@H](C)CO)C[C@H]1C` gave NOMO-1 viab -8.9.
`COc1ccc(NC(=O)Nc2ccc3c(c2)C(=O)N([C@H](C)CO)C[C@H](C)[C@@H](CN(C)C(=O)Nc2ccccc2)OCCCC[C@@H](C)O3)cc1` gave NOMO-1 viab -13.9.
For O=C(CSc1nccc(=O)[nH]1)N1CCN(c2ccccc2)CC1 the results were NOMO-1 viab -4.5.
COc1ccc(CCNC(=O)c2cc(-c3ccncc3)nc3c(Cl)cccc23)cc1OC was read as NOMO-1 viab 42.9.
For CC1=C(C#N)C(C(F)(F)F)(C(F)(F)F)N=C(Cc2ccccc2)N1 the results were NOMO-1 viab 72.9.
Cc1ccc(S(=O)(=O)N(C)C[C@@H]2Oc3ccc(N(C)C)cc3CC(=O)N([C@H](C)CO)C[C@H]2C)cc1 was read as NOMO-1 viab -8.4.
For C[C@H]1CN([C@@H](C)CO)C(=O)Cc2cc(NC(=O)CCN3CCOCC3)ccc2O[C@@H]1CN(C)S(=O)(=O)c1ccc(Cl)cc1 the results were NOMO-1 viab 16.9.
For Cc1ccc(C(=O)COc2cccc(NC(=O)c3ccc(Br)cc3)c2)cc1C the results were NOMO-1 viab 41.4.
O=C(COc1ccc(C(=O)Nc2ccccc2Cl)cc1)Nc1cccc(C(F)(F)F)c1 was read as NOMO-1 viab 26.8.
For C[C@H](CO)N1C[C@H](C)[C@@H](CN(C)Cc2ccc(-c3ccccc3)cc2)Oc2ccc(NC(=O)Nc3ccc(C(F)(F)F)cc3)cc2C1=O the results were NOMO-1 viab 121.9*.
For CCC1(COC(NC(=O)c2ccc(Cl)cc2Cl)(C(F)(F)F)C(F)(F)F)COC1 the results were NOMO-1 viab 34.0.
For CCc1ccccc1NC(=O)CC(O)(C(=O)OC)C(F)(F)F (configuration not stated) the results were NOMO-1 viab 6.6.
For O=C(CSc1ncn[nH]1)N(c1ccccc1)c1ccccc1 the results were NOMO-1 viab 26.2.
Screening COc1ccc(NC(=O)N(C)C[C@@H]2Oc3ccc(NC(=O)CCCCCC(=O)Nc4ccccc4N)cc3CC(=O)N([C@H](C)CO)C[C@H]2C)cc1 returned NOMO-1 viab -1.4.
For CSC1=N/C(=C\C=C\c2cccs2)C(=O)S1 the results were NOMO-1 viab 122.6*.
`Cc1cc(O)c(Cc2c(O)cc(C)c(C=O)c2O)c(O)c1C` gave NOMO-1 viab 3.3.
Screening COc1ccc(NC(=O)Nc2ccc3c(c2)C(=O)N([C@@H](C)CO)C[C@@H](C)[C@@H](CN(C)C(=O)Nc2ccc(C(F)(F)F)cc2)O3)cc1 returned NOMO-1 viab 65.1.
`CC1=C2CCC(C(=O)O)=CC2C(C(C)C)CC1` (configuration not stated) gave NOMO-1 viab -1.0.
CCOC(=O)c1c(NC(=O)CN2C(=O)c3ccccc3C2=O)sc2c1CCC(C)C2 (configuration not stated) was read as NOMO-1 viab -13.9.
For C[C@@H]1CCCCO[C@H](CN(C)S(=O)(=O)c2ccc(F)cc2)[C@@H](C)CN([C@H](C)CO)C(=O)c2cc(NC(=O)Nc3ccc(F)cc3)ccc2O1 the results were NOMO-1 viab 43.2.
CC(C)COC(=O)c1ccc2c(c1)C1C=CCC1C(c1ccc(Cl)cc1)N2 (configuration not stated) was read as NOMO-1 viab 28.3.
`COc1cc(NC(=O)CS(=O)(=O)c2ccccc2)cc(OC)c1OC` gave NOMO-1 viab 41.0.
Screening O=C(CSc1n[nH]c(-c2ccncc2)n1)Nc1sc2c(c1C(=O)Nc1ccccc1)CCCC2 returned NOMO-1 viab 33.2.
`Cc1cccc(-c2nc3cc(NC(=O)COc4ccccc4[N+](=O)[O-])ccc3o2)c1` gave NOMO-1 viab -19.6.
C[C@@H]1CN([C@H](C)CO)C(=O)Cc2cc(NC(=O)C3CCCCC3)ccc2O[C@@H]1CN(C)Cc1ccc(C(F)(F)F)cc1 was read as NOMO-1 viab 100.5*.
Screening C[C@@H]1CN([C@@H](C)CO)C(=O)c2cc(NC(=O)Nc3cccc4ccccc34)ccc2O[C@@H]1CN(C)Cc1ccc(C(=O)Nc2ccccc2N)cc1 returned NOMO-1 viab 110.3*.
Screening COc1ccc(S(=O)(=O)Nc2ccc3c(c2)C(=O)N([C@H](C)CO)C[C@H](C)[C@H](CN(C)S(=O)(=O)c2ccc(OC)cc2)OCCCC[C@@H](C)O3)cc1 returned NOMO-1 viab 38.3.
For CC(C)NC(=O)Nc1ccc2c(c1)CC(=O)N([C@H](C)CO)C[C@H](C)[C@H](CN(C)S(=O)(=O)c1ccccc1)O2 the results were NOMO-1 viab 17.2.
`C[C@@H]1CN([C@H](C)CO)C(=O)c2cc(NS(=O)(=O)c3ccccc3)ccc2O[C@@H]1CN(C)S(=O)(=O)c1ccc(Cl)cc1` gave NOMO-1 viab -8.8.
Screening Cc1ccc(-c2nnc3c4ccccc4c(C)nn23)cc1S(N)(=O)=O returned NOMO-1 viab 20.2.
`Cc1ccccc1S(=O)c1ccccc1C(=O)O` (configuration not stated) gave NOMO-1 viab -9.4.
Screening C[C@H](CO)N1C[C@H](C)[C@@H](CN(C)Cc2ccc(C(=O)Nc3ccccc3N)cc2)Oc2c(NC(=O)c3ccncc3)cccc2C1=O returned NOMO-1 viab 38.9.
CN1Cc2cc3c(cc2CCC(=O)c2cc4c(cc2C1)OCO4)OCO3 was read as NOMO-1 viab 17.4.
`C[C@@H]1CN([C@@H](C)CO)C(=O)c2cccc(NS(=O)(=O)c3cn(C)cn3)c2O[C@@H]1CN(C)CC1CC1` gave NOMO-1 viab -15.3.
`COc1ccc(S(=O)(=O)Nc2ccc3c(c2)C(=O)N([C@@H](C)CO)C[C@@H](C)[C@@H](CN(C)Cc2ccc(Oc4ccccc4)cc2)O3)cc1` gave NOMO-1 viab 113.1*.
`C[C@H](CO)N1C[C@H](C)[C@@H](CN(C)Cc2ccc(Oc3ccccc3)cc2)Oc2c(NC(=O)C3CCOCC3)cccc2C1=O` gave NOMO-1 viab 35.9.
Screening Cc1c(NC(=O)C(C)(C)C)c(=O)n(-c2ccccc2)n1C returned NOMO-1 viab 12.9.
`CCn1c(SCC(=O)N2CCc3ccccc32)nnc1-c1c[nH]c2ccccc12` gave NOMO-1 viab 27.9.
For O=c1cc(-c2ccc(O)c(O)c2)c2c(O[C@@H]3O[C@H](CO)[C@@H](O)[C@H](O)[C@H]3O)cc(O)cc2o1 the results were NOMO-1 viab -10.4.
Screening C[C@H](CO)N1C[C@H](C)[C@H](CN(C)C(=O)Nc2ccccc2)Oc2ccc(NC(=O)Cc3ccccc3)cc2C1=O returned NOMO-1 viab 22.1.
Screening CC(C)NC(=O)Nc1ccc2c(c1)CC(=O)N([C@H](C)CO)C[C@H](C)[C@H](CN(C)C(=O)NC1CCCCC1)O2 returned NOMO-1 viab 0.9.
N#CC(C#N)=C(N)/C(C#N)=C/c1cc(O)c(O)c(O)c1 was read as NOMO-1 viab 31.6.
For C[C@@H]1CCCCO[C@H](CN(C)C(=O)Cc2ccccc2)[C@@H](C)CN([C@H](C)CO)C(=O)c2cc(NC(=O)Nc3ccc(F)cc3)ccc2O1 the results were NOMO-1 viab 19.6.
For Nc1ncnc(NCCN2CCOCC2)c1[N+](=O)[O-] the results were NOMO-1 viab -21.0.
Cc1ccc(S(=O)(=O)Nc2ccc3c(c2)CC(=O)N([C@@H](C)CO)C[C@H](C)[C@@H](CN(C)Cc2ccc(C(=O)Nc4ccccc4N)cc2)O3)cc1 was read as NOMO-1 viab 48.1.
Screening COc1cc(/C=C2/C(=N)N3C=CSC3=NC2=O)cc(OC)c1OCCOc1ccc(C)c(C)c1 returned NOMO-1 viab 20.5.
`CC(C)Oc1ccccc1-c1nc(SCC(N)=O)n[nH]1` gave NOMO-1 viab 24.2.
Screening C[C@H](CO)N1C[C@H](C)[C@@H](CN(C)Cc2ccc(Oc3ccccc3)cc2)Oc2ccc(NC(=O)CCCN(C)C)cc2C1=O returned NOMO-1 viab 18.1.
`C[C@H](CO)N1C[C@H](C)[C@@H](CN(C)S(=O)(=O)c2cn(C)cn2)Oc2ccc(NC(=O)Nc3ccc(F)cc3)cc2C1=O` gave NOMO-1 viab 5.9.
Screening COC(=O)c1c2ccccc2c(C)c2ccccc12 returned NOMO-1 viab inconclusive.
For C[C@H](CO)N1C[C@H](C)[C@H](CN(C)S(C)(=O)=O)Oc2ccc(NC(=O)Nc3cccc4ccccc34)cc2CC1=O the results were NOMO-1 viab -1.8.
Screening COc1ccc([N+](=O)[O-])cc1NC(=O)c1ccccc1OCC(=O)Nc1cccc(C)c1 returned NOMO-1 viab 28.1.

Arranged by number of heavy atoms (ascending): some entries from above
`CC(C)Oc1ccccc1-c1nc(SCC(N)=O)n[nH]1` gave NOMO-1 viab 24.2.
For C[C@@H]1CN([C@H](C)CO)C(=O)Cc2cc(NC(=O)CCN3CCOCC3)ccc2O[C@H]1CN(C)C(=O)NC1CCCCC1 the results were NOMO-1 viab 0.3.
`C[C@@H]1CN([C@@H](C)CO)C(=O)c2cc(NC(=O)Cc3cn(C)c4ccccc34)ccc2O[C@H]1CN(C)Cc1ccc(Oc2ccccc2)cc1` gave NOMO-1 viab 55.5.
